CDC25B-CDK2 inh: human CDC25B-CDK2/CyclinA binding inhibition | 94,000 tested, 0.72% active | AID 1259370 | z-score (test concentration not listed) | HTRF CDC25B-CDK2/CyclinA binding, anti-His/anti-Flag; active compounds read high;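 also: score is relative to mean and SD of negative controls; strong numbers were not always called active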
TAR Tat displ: HIV-1 TAR-Tat binding disruption; HIV-1 TAR RNA, Tat peptide displacement FRET; active compounds read high; z-score (test concentration not listed); 100,000 tested, 0.6% active; AID 1259389;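 also: score is relative to mean and SD of negative controls; some compounds called inactive have numbers as strong as hits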
* hit, by the source's call; / = not tested or not shown.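 The calls were made as follows: active = z-score from 3 up in half or more of its runs; inactive = the rest.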

SMILES | CDC25B-CDK2 inh | TAR Tat displ
Cc1oc2ccc(OCc3ccc(F)cc3)cc2c1C(=O)O | -0.37 | /
CCc1ccccc1NS(=O)(=O)c1ccc(-c2cnc(C)o2)cc1 | / | 0.65
O=C(Cn1c(=O)oc2cc(S(=O)(=O)N3CCCCCC3)ccc21)NC1CCCC1 | 0.14 | /
CC1=NS(=O)(=O)c2cc(C(=O)N(C)Cc3ccccc3)ccc2N1CC(C)C | / | 0.79
Cc1ccc(C)c(S(=O)(=O)NCCn2nc(-c3ccc(F)cc3)ccc2=O)c1 | / | 0.53
Cc1ccc(S(=O)(=O)NCc2nc(N)n(S(=O)(=O)c3ccc(C)c(C)c3)n2)cc1C | -0.14 | 1.7
CN(CC(=O)NC1CCCc2ccccc21)c1nnc(N2CCCC2=O)s1 (configuration not stated) | -2.2 | 2.1
Cc1ccc(S(=O)(=O)NC(=O)Nc2cc(C(C)(C)C)on2)cc1 | -2.3 | /
C=CCNC(=O)c1ccc2nc3c4ccccc4c4ccccc4c3nc2c1 | -1.7 | /
CN1CCN(C(=O)C(=O)Nc2c3c(nn2-c2ccc(Cl)cc2)CSC3)CC1 | / | 0.94
Cc1ccccc1-c1nc(SCc2cc(=O)n3c(C)csc3n2)n[nH]1 | / | 0.91
Cc1nn(C)c2c1c(C(F)(F)F)cc(=O)n2C(C)C(=O)NCCC1=CCCCC1 (configuration not stated) | / | 0.81
CCN1CCN(c2ncc3c(n2)CCN(Cc2ccc(OC)c(OC)c2)C3)CC1 | / | 0.71
CCC(=O)N1CCc2cc(S(=O)(=O)CCC(=O)NCc3cccs3)ccc21 | -1.1 | /
COc1ccc(C(=O)CC2(O)C(=O)N(C(C)C)c3ccccc32)c(OC)c1 (configuration not stated) | -1 | -1.1
Cn1cnc(S(=O)(=O)N2CCCC(c3nnc(C(=O)Nc4ccc(Cl)cc4)s3)C2)c1 (configuration not stated) | / | 0.95
C=CCN1C(=O)C(O)(CC(=O)c2ccco2)c2cc(Br)ccc21 (configuration not stated) | -0.84 | 1.3
Cc1ccc(-c2ccc(=O)[nH]n2)cc1S(=O)(=O)N1CCOCC1 | -1.9 | -0.82
CN(C)CCN1C(=O)CSc2c(c3ccccc3n2C)C1C(=O)NCc1ccccc1 (configuration not stated) | / | -0.11
Fc1ccccc1N1CCN(c2c3c(nc4nncn24)CCC3)CC1 | -0.71 | 2.2
Cc1cc2[nH]c(=O)c(=O)[nH]c2cc1S(=O)(=O)Nc1ccc2c(c1)sc(=O)n2C | -0.31 | 2.3
COc1ccc2c(c1)NC(c1cccs1)=NC(c1ccc(N3CCOCC3)cc1)=N2 | -2.1 | 0.49
CCOc1ccccc1N1C(=O)C2C3c4ccccc4C(C(=O)O)(c4ccccc43)C2C1=O (configuration not stated) | -1.7 | -0.89
C=CCOc1ccc(C2CC(=O)Nc3c2c(C)nn3-c2ccc3nnc(C)n3n2)cc1 (configuration not stated) | / | -1.6

Record cards, as listed above.
`CCN1CCN(c2ncc3c(n2)CCN(Cc2ccc(OC)c(OC)c2)C3)CC1` reads CDC25B-CDK2 inh: /; TAR Tat displ: 0.71
`COc1ccc(C(=O)CC2(O)C(=O)N(C(C)C)c3ccccc32)c(OC)c1` (configuration not stated) reads CDC25B-CDK2 inh: -1; TAR Tat displ: -1.1

Other structures
SMILES | CDC25B-CDK2 inh | TAR Tat displ
Cc1nnc(SCC(=O)Nc2ncc3c(n2)CC(C)(C)CC3=O)s1 | -1.1 | -0.14
COc1ccc(S(=O)(=O)[C@H]2CS(=O)(=O)C[C@@H]2NCc2ccc(F)cc2)cc1 | -1.5 | 0.55
COc1ccc2c(Sc3ccc(Cl)cc3)c(C(=O)N3CCOCC3)[nH]c2c1 | -2.2 | 0.43
O=C1CCCc2cc(S(=O)(=O)NCCCc3ccco3)ccc2N1 | / | -0.55
Cc1cc(C)c(C#N)c(SC2CCCCC2=O)n1 (configuration not stated) | -1.9 | /
Cc1ccc(S(=O)(=O)N2CCN(c3nc4ccccc4n4cccc34)CC2)cc1C | -1 | -1.4
Cc1cc(O)c([N+](=O)[O-])c(=O)[nH]1 | -0.14 | /
CCc1[nH]nc2c1C(c1ccc(F)cc1)C(C#N)=C(N)O2 (configuration not stated) | -0.97 | 1.1
COc1cc(C2NC(C(=O)O)CS2)ccc1OCc1ccc(F)cc1 (configuration not stated) | -1.1 | /
CC(C)c1cc(C2CCCN2S(=O)(=O)c2cnc[nH]2)no1 (configuration not stated) | / | 0.66
CC1=C(c2ccc(Cl)cc2)S(=O)(=O)N(CC(=O)O)C1=O | -0.11 | 0.06
Cn1c(=O)c(=O)n(C)c2cc3c(cc21)ncn3Cc1ccccc1 | -1.8 | 0.26
Cc1ccc(-c2n[nH]c(=O)c(Cc3ccc(Br)cc3)n2)cc1 | / | 0.75
CC1(C)Cc2nc(N3CCOCC3)c(C#N)cc2CO1 | 3.3 | 1.1
COc1ccc(Cl)cc1NS(=O)(=O)c1cnc[nH]1 | -0.98 | -0.5
c1ccc2c(c1)c(NCc1ccc3c(c1)OCO3)nn1cnnc21 | -0.63 | 2.2
Cc1cc(C=C(C#N)C#N)c2c(C)ccc(C(C)C)cc1-2 | -1.5 | /
CCN(CC)C(=O)c1cn(CC(C)C)c(=O)c2cc(OC)c(OC)cc12 | -0.44 | /
Cc1cc(NC(=O)COCc2cc(-c3cccs3)on2)no1 | / | 1.1
CC(NS(=O)(=O)c1ccc(F)cc1)C(c1cccs1)N1CCN(c2ccccc2)CC1 (configuration not stated) | -2.2 | /
CC(C)CC(C(=O)NCc1cccs1)N1Cc2ccccc2C1=O (configuration not stated) | / | -1.2
COC(=O)C1=C(N)OC2=C(C(=O)CCC2)C1c1cccnc1 (configuration not stated) | -3.1 | /
O=[N+]([O-])c1ccc(N/N=C/c2ccccc2)c([N+](=O)[O-])c1 | -0.49 | /
O=C(C1CC1)N1c2nc(-c3cccnc3)nn2C2(CCCCC2)[C@@H]2CCCC[C@@H]21 | 0.76 | 1.2
CC1=C(C(=O)Nc2cccc(C)n2)C(c2cccc(Br)c2)C2=C(CC(C)(C)CC2=O)N1 (configuration not stated) | -0.64 | -0.62
Cc1cc(Nc2ccc(C)c(C)c2)n2cnnc2n1 | -1.8 | 1.1
O=P(c1cccs1)(c1cccs1)c1cccs1 | 1.1 | /
CCCCc1cnc2c(c1SCC(=O)Nc1nccs1)c(=O)n(C)c(=O)n2C | / | 0.46
CCOc1ccc(S(=O)(=O)c2cn(C)c3cc(OC)c(OC)cc3c2=O)cc1 | -0.84 | 2.5
C=C(C)Cn1c(C2CC(=O)N(c3cc(OC)ccc3OC)C2)nc2ccccc21 (configuration not stated) | -1.5 | -0.2
O=C(CCc1nnc2ccc(N3CCCC3)nn12)N1CCN(c2ccccc2F)CC1 | / | -0.99
Cc1ccc(C)c(-n2nnc(-c3nc(-c4ccc5c(c4)OCO5)no3)c2N)c1 | / | -0.26
CCc1ccccc1NS(=O)(=O)c1ccc(-c2coc(C)n2)cc1 | / | 1.1
O=C1CC(N2CCN(c3ccccc3)CC2)C=C1Nc1ccc(Cl)cc1 (configuration not stated) | -0.15 | /
CN1C/C(=C\c2ccco2)C(=O)/C(=C/c2ccco2)C1 | 0.16 | /
O=S(=O)(NCCSCc1ccco1)c1ccc(Cl)cc1 | -0.4 | /
Cn1cnc(S(=O)(=O)N2CCC(CN3CCc4ccccc4C3)CC2)c1 | / | 0.8
Cn1c(=O)c2c(-c3ccccc3Br)n(CC(=O)c3ccccc3)cc2n(C)c1=O | -1.5 | -0.1
CSc1ccc(CNC(=O)c2cnc3sc(N4CCCC4)nn3c2=O)cc1 | / | 1.1
COc1ccc(OC)c(NS(=O)(=O)c2cc(CN3C(=O)c4cccnc4C3=O)ccc2OC)c1 | / | 0.68
CCOc1cc(C2c3c(oc4ccccc4c3=O)C(=O)N2Cc2ccccc2)ccc1O (configuration not stated) | 0.84 | 0.04
CC1CC(=O)Nc2cc(S(=O)(=O)Nc3ccc(F)cc3F)ccc2S1 (configuration not stated) | / | 1.1
CCOC(=O)c1nnn(-c2nonc2N)c1CN1C(=O)c2ccccc2C1=O | -0.45 | /
CC1(C)CC(=O)c2sc(NC(=O)c3ccco3)nc2C1 | -2.2 | /
Cc1ccc(O)c(C2=NN3C(C2)c2ccccc2OC3c2ccsc2)c1 (configuration not stated) | -0.71 | -1.9
O=C(COc1ccc(F)cc1)Nc1nn2c(-c3ccco3)nnc2s1 | -1.5 | 1.6
Cc1nn2c(=O)cc(CSc3nnc(N)s3)nc2s1 | -2.8 | -0.66
Clc1ccc(-n2ncc3c2ncn2nc(-c4ccccc4)nc32)cc1 | 2.1 | 1.5
CC1CN(C(=O)c2cnn(C)c2[N+](=O)[O-])CC(C)O1 (configuration not stated) | 0.14 | /
CC(C)N(C(=O)Cn1c(C2CC(=O)N(c3ccccc3Cl)C2)nc2ccccc21)c1ccccc1 (configuration not stated) | -2.6 | 3.2
Cn1cc(S(=O)(=O)N2CCc3ccccc32)cc1C(=O)N1CCn2c1nc1ccccc12 | / | 2.3
O=C1CCCC2=C1C(c1ccccc1Cl)n1c(nc3ccccc31)N2 (configuration not stated) | -2.8 | /
Cc1ccc(C(=O)Nc2ccc3ccccc3n2)cc1 | -1.4 | /
COC(=O)c1cc(NS(=O)(=O)c2ccc(Br)cc2)cc(C(=O)OC)c1 | -1.4 | 0
CS(=O)(=O)Nc1ccc(C2=NN(C(=O)CCCC(=O)O)C(c3ccccc3)C2)cc1 (configuration not stated) | 0.38 | 1.2
C=CCn1c(SCc2ccccc2)nc2ccccc2c1=O | -2.3 | /
Cc1nc(CC(=O)Nc2sc3c(c2C(N)=O)CCC(C)C3)cs1 (configuration not stated) | 0.71 | -0.08
Cc1cc(S(=O)(=O)NCCc2csc3nc(-c4ccccc4F)nn23)ccc1F | / | 0.73
O=C1CC(c2ccccc2F)N=C(NC(=O)c2ccc3c(c2)OCO3)N1 (configuration not stated) | / | 0.29
Cc1ccc2nc(Cc3ccc4nc(N)sc4c3)oc2c1 | -1.7 | 0.72
Following part.
SMILES | CDC25B-CDK2 inh | TAR Tat displ
Cc1nc2nc(SCC(=O)NC3CC3)nn2c(C)c1Cc1ccccc1 | -0.11 | /
CCOC(=O)N1CCN(c2c(NCCCOC)c(=O)c2=O)CC1 | -0.77 | 0.41
CC(CC(=O)O)CC1=NS(=O)(=O)c2ccccc2N1 (configuration not stated) | / | 2
CCOc1cc(C2C(C(=O)OCC3CCCO3)=C(C)NC3=C2C(=O)CCC3)ccc1O (configuration not stated) | -1.4 | -0.35
CC1CCN(CCNS(=O)(=O)c2ccc3c(c2)CCCC(=O)N3)CC1 | / | 1.1
CCCn1c(NCc2cc(Cl)ccc2O)nc2ccccc21 | -0.62 | 0.25
O=c1c2ccccc2nc2ccc(N3CCC4CCCCC4C3)nn12 (configuration not stated) | 1.1 | 0.9
N/C(CC(=O)Nc1ccc(F)c(Cl)c1)=N\O | -1.2 | /
Cc1ccc(-n2cc3c(c2-c2ccccc2Br)c(=O)n(C)c(=O)n3C)c(N)c1 | -0.84 | -0.3
O=C(CSc1n[nH]c(=O)n1C1CC1)c1cc(-c2ccccc2)no1 | 0.25 | /
O=C1CSC(c2cn(-c3ccccc3)nc2-c2cccnc2)N1Cc1ccccc1 (configuration not stated) | -1 | -0.04
O=C(c1ccc2c(c1)nc1n2CCOC1)N1CCN(c2ccc(Cl)cc2)CC1 | / | 1.4
COC(=O)c1ccc(CS(=O)(=O)c2ccc(Br)cc2)o1 | / | 1
CCOC(=O)N1CCN(S(=O)(=O)c2ccc3c(c2)OCCO3)CC1 | -0.67 | 2
CCCCN(C(=O)NC(=O)Nc1ccc(Cl)cc1)S(C)(=O)=O | 1.2 | 0.89
COc1cccc(N2C(=O)C3CCCN3C2=S)c1 (configuration not stated) | -2.7 | /
O=C(CC1Oc2ccccc2NC1=O)NCCCN1CCN(C2CCCCC2)CC1 (configuration not stated) | -2.8 | 0.56
CC1CCN(c2ncnc3scc(-c4ccc(F)cc4)c23)CC1 | / | -0.98
COc1cc(Cl)c(C)cc1NS(=O)(=O)c1c(C)nc2sc(C)cn2c1=O | / | 0.13
CC(=O)CC1(O)C(=O)Nc2ccc(F)cc21 (configuration not stated) | -0.81 | /
Cc1csc(NC(=O)CSc2nc(=O)n(CCN3CCOCC3)c3c2CCC3)n1 | / | 0.68
CCOC(=O)c1[nH]c(=O)[nH]c1Cn1nc(C)cc1C | -4.9 | /
Nc1c(-c2nc(-c3cccs3)no2)nnn1-c1cccc(Cl)c1 | / | 1.1
Cc1ccccc1CN(C1=NC2CS(=O)(=O)CC2S1)c1ccccc1 (configuration not stated) | -3.6 | 1.2

Given field by field: two of the compounds above.
smiles: CCCCN(C(=O)NC(=O)Nc1ccc(Cl)cc1)S(C)(=O)=O
  CDC25B-CDK2 inh = 1.2	TAR Tat displ = 0.89
smiles: COc1cccc(N2C(=O)C3CCCN3C2=S)c1 (configuration not stated)
  CDC25B-CDK2 inh = -2.7	TAR Tat displ = /

Looked up one by one from above, three records:
SMILES | CDC25B-CDK2 inh | TAR Tat displ
Cn1cc(S(=O)(=O)N2CCc3ccccc32)cc1C(=O)N1CCn2c1nc1ccccc12 | / | 2.3
CC1CCN(c2ncnc3scc(-c4ccc(F)cc4)c23)CC1 | / | -0.98
O=c1c2ccccc2nc2ccc(N3CCC4CCCCC4C3)nn12 (configuration not stated) | 1.1 | 0.9

Additional entries.
SMILES | CDC25B-CDK2 inh | TAR Tat displ
CCOC(=O)N1CCN(C(=O)C2=C(C)C(=O)OC23CCN(S(=O)(=O)c2cccs2)CC3)CC1 | / | 0.71
COc1cccc(NS(=O)(=O)c2ccc(-c3n[nH]c(C)c3C)s2)c1 | / | -0.41
O=C(Nc1cccc(-c2nc3ccccc3s2)c1)c1sc2ccccc2c1Cl | -4 | /
CNc1nc(-c2ccccc2O)nc(-c2ccccc2O)n1 | -6.2 | /

Quoted from the listing:
Value of CNc1nc(-c2ccccc2O)nc(-c2ccccc2O)n1 under CDC25B-CDK2 inh: -6.2
Value of COc1cccc(NS(=O)(=O)c2ccc(-c3n[nH]c(C)c3C)s2)c1 under TAR Tat displ: -0.41

Source: PubChem BioAssay (Center for Chemical Genomics, University of Michigan)
